# Screening results from PubChem BioAssay.
# VDR inh – vitamin D3 receptor (human) inhibition. P11473. VDR-SRC2-3 peptide fluorescence polarization, 2 h. Potency, µM, for the others: max response, negative = inhibition, most hits filed as inhibitors. 400,000 tested, 0.93% active. AID 504847; active = well fitted inhibition curve with a large enough effect; inconclusive = small, poorly fitted or top-dose-only effect, or another doubt; inactive = no such curve, though single readings can be large or run the other way; note: series mostly up to about 120 µM
# Target sequence (P11473 whole entry, looked up): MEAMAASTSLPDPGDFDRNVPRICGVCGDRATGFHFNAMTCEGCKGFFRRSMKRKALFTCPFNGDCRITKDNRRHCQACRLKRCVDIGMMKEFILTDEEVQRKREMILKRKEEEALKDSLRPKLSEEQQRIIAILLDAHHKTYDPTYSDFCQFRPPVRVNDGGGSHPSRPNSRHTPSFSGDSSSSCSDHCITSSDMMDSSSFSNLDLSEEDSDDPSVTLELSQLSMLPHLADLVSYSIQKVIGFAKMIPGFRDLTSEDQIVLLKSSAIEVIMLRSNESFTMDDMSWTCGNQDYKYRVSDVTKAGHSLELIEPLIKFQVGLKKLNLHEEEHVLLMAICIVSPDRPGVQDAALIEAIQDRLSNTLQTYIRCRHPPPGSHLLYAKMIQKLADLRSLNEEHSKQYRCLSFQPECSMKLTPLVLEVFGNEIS
#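 The screen uses fluorescence polarization to detect compounds that interfere with recruitment of the SRC2-3 coactivator peptide to VDR; plates are read after 2 h at room temperature.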
# Starred values were filed as active, the others as inactive; ? = inconclusive; & = joins results of further samples; [ ] = remark or other dose. % is set by controls: 0 for no effect and ±100 for the full control effect; potency is the fitted concentration of half-maximal effect. A portion of the library; count on the stated rates, not on these rows.
VDR inh | SMILES
10% | CC(C)c1ccc(OCCCCN2CCCCC2)cc1
18% | Cc1ccc(NC(=O)CN(C)Cc2nc3c(Br)cc(Br)cc3c(=O)[nH]2)cc1
-6% | O=C(c1ccc(Br)o1)N1CCCc2ccccc21
1% | O=C1COc2ccc(C(=O)COC(=O)c3cc(S(=O)(=O)N4CCOCC4)ccc3F)cc2N1
-6% | COc1cc(CNc2ccc3[nH]c(=O)[nH]c3c2)ccc1OCC(=O)NC(C)(C)C
2% | O=C(NCCCC1CCCC1)C1CCC(=O)N(Cc2cccc(F)c2)C1 (centres undefined)
1% | CC(C)CCNC(=O)CCn1nc(-c2ccc(Cl)cc2)ccc1=O
-6% | Cc1noc(C)c1CSCC(=O)Oc1ccc(N(C)S(=O)(=O)c2ccccc2)cc1
6% | COc1ccc(C(=O)NCc2cc(C)nc3ccccc23)cc1OC
14% | CCCCN(CC)CCNc1c(N2CCN(C(=O)OCC)CC2)c(=O)c1=O
3% | Cc1ccc(NC(=O)NCCCN2CCCC2=O)c(C)c1
-12% | c1ccc(Nc2n[nH]nc2-c2ccccc2)cc1
-9% | CC(=O)Oc1ccc(C(=O)Nc2cccnc2)cc1
3% | COc1ccc(-n2c(C)nc3sc4c(c3c2=O)CCC4)cc1
-9% | COc1ccccc1Nc1nc(N)nc(CN2CCN(c3ccccc3F)CC2)n1
? | O=S(=O)(c1cccc(NC(=S)NCc2ccco2)c1)N1CCOCC1
-1% | CC1(C)CC(=O)C2=C(C1)N(c1ccc(F)cc1)C(=O)CC2c1ccccc1 (centres undefined)
9% | Cc1cc(Nc2cccc(Cl)c2)nc2ccc(NC(=O)COc3ccc(Cl)cc3)cc12
12% | Cc1ccc2c(=O)cc(C(=O)Nc3sc4c(c3C(=O)NCC3CCCO3)CCC4)oc2c1 (centres undefined)
? | Cc1ccc(Cl)cc1NC(=O)C(C)n1nnc2sc(-c3ccccc3)cc2c1=O (centres undefined)
-19% | CC(NCc1cccc(S(=O)(=O)N(C)C)c1)c1ccc(F)cc1 (centres undefined)
-20% | CCOC(=O)C1=C(c2ccccc2)NC(SC)=C(C#N)C1c1cccnc1 (centres undefined)
-9% | Cc1nn(C)c(C)c1CCC(=O)N1CCCC(N2CCN(c3ccc(F)cc3)CC2)C1 (centres undefined)
7% | CCn1c2ccccc2c2cc(NC(C)=O)ccc21
-6% | O=C(NNC1CC(=O)N(c2ccccc2)C1=O)c1ccccc1Cl (centres undefined)
10% | COc1ccc(S(=O)(=O)N2CCN(Cc3cccnc3)CC2)cc1
5% | O=C(NCCCN1CCOCC1)c1ccc2c(c1)N(Cc1c(F)cccc1Cl)C(=O)CS2
4% | COc1ccc(C)cc1S(=O)(=O)N(C)CC(=O)Nc1ccc2c(c1)OCO2
? | Cc1cccc(NC(=S)/N=C(\N)Nc2nc(C)c3ccccc3n2)c1
-2% | CC(C)c1cc(-c2n[nH]c(=S)n2Cc2ccccc2)cs1

# Gathered by group: those above with an aryl methoxy group.
VDR inh | SMILES
-6% | COc1cc(CNc2ccc3[nH]c(=O)[nH]c3c2)ccc1OCC(=O)NC(C)(C)C
6% | COc1ccc(C(=O)NCc2cc(C)nc3ccccc23)cc1OC
3% | COc1ccc(-n2c(C)nc3sc4c(c3c2=O)CCC4)cc1
-9% | COc1ccccc1Nc1nc(N)nc(CN2CCN(c3ccccc3F)CC2)n1
10% | COc1ccc(S(=O)(=O)N2CCN(Cc3cccnc3)CC2)cc1
4% | COc1ccc(C)cc1S(=O)(=O)N(C)CC(=O)Nc1ccc2c(c1)OCO2

# Remaining list, next part.
VDR inh | SMILES
-4% | O=C(COc1ccc(Br)cc1F)Nc1nnc(C2CC2)s1
18% | Cc1ccc(CONC(=O)c2ccc(C)cc2)cc1
2% | Cc1ccc(C(=O)CSc2nc3ccccc3c(=O)n2N)o1
32%[activator] | CNc1c2cccc(C)c2nc2c(C(=O)NCCN(C)C)cccc12
9% | O=C(NCCc1nc2ccccc2[nH]1)c1ccc(Cl)c([N+](=O)[O-])c1
5% | Cc1ccc2c(=O)cc(C(=O)Nc3ccc(S(=O)(=O)Nc4onc(C)c4C)cc3)oc2c1C
4% | CCc1ccccc1N=C1SCC(=O)N1C
-20% | CC(C)(C)OC(=O)NCCCC[C@H](NC(=O)c1nc[nH]c1C(=O)N1CCc2ccccc2C1)C(=O)OC(C)(C)C
-4% | COc1ccc(S(=O)(=O)NCc2ccc3c(c2)OCO3)cc1C(=O)O
-6% | CCN(c1ccccc1)S(=O)(=O)c1ccc(Cl)c(NC(=O)CN(C)Cc2cccc(F)c2)c1
0% | O=C(O)COCC(=O)N1CCN(c2cc(C(F)(F)F)nc3ccccc23)CC1
25% | CN(CC(=O)Nc1c(Cl)cccc1Cl)C(=O)CNC(=O)c1sc2ccccc2c1Cl
-16% | Cc1c(Cc2ccccc2)c(=O)oc2cc(OCC(=O)N3CCC(C(=O)O)CC3)ccc12
-7% | CN1CCN(C(=O)c2ccc(CSc3nc4ccncc4n3Cc3ccc(F)cc3)cc2)CC1
-28% | COc1ccccc1C=C1SC(=S)NC1=O
-4% | CCOc1cc(/C=N/n2cnnc2)ccc1OS(=O)(=O)c1ccc(C)cc1
8% | CSCC[C@H](NC(=O)[C@H](Cc1ccccc1)NC(=O)[C@H](Cc1cnc[nH]1)NC(=O)CNC(=O)[C@@H](NC(=O)[C@H](C)NC(=O)[C@H](Cc1c[nH]c2ccccc12)NC(=O)[C@H](CCC(N)=O)NC(=O)[C@@H]1CCCN1C(=O)[C@@H](NC(=O)[C@@H]1CCC(=O)N1)C(C)C)C(C)C)C(N)=O
9% | COC(=O)c1cc2sc(Cl)cc2n1CC(=O)N1CCCc2ccccc21
-16% | CC(C)Cn1c(N)c(C=O)c(=O)[nH]c1=O
-16% | O=C(COC(=O)C1CC2CCCC(C1)C2=O)Nc1cccc(F)c1 (centres undefined)
-9% | CCOC(=O)C1=C(COC(=O)c2ccc(Cl)nc2)NC(=O)NC1C (centres undefined)
-19% | Cc1ccccc1N1CCN(C(=O)c2ccc(Oc3ccc(C(F)(F)F)cn3)cc2)CC1
10% | COc1cccc(C(=O)Nc2cccc(C(=O)OCc3cc(=O)n4c(C)csc4n3)c2)c1
-25% | COc1ccc(NC(=O)N(C)C[C@H]2Oc3c(NS(=O)(=O)c4cccs4)cccc3C(=O)N([C@@H](C)CO)C[C@@H]2C)cc1
4% | Cc1ccc(CNC(=O)C(=O)c2cn(CC(=O)N3CCOCC3)c3ccccc23)cc1
-24% | COC(=O)Nc1nc(-c2ccc(F)cc2)c(C)s1
14% | COc1ccccc1CNC(=O)C[n+]1ccccc1
5% | Cc1cc2c(c(=O)n1Cc1ccco1)C(c1ccccc1)C(C#N)=C(N)O2 (centres undefined)
3% | CCCN1C(=O)c2ccc(C(=O)Nc3cc(C)on3)cc2C1=O
5% | Cc1noc(C)c1C(=O)NC(C)c1ccc(Cl)cc1Cl (centres undefined)

# Ordered by the number under VDR inh (smallest number first): four of the compounds above
VDR inh | SMILES
-19% | Cc1ccccc1N1CCN(C(=O)c2ccc(Oc3ccc(C(F)(F)F)cn3)cc2)CC1
2% | Cc1ccc(C(=O)CSc2nc3ccccc3c(=O)n2N)o1
5% | Cc1noc(C)c1C(=O)NC(C)c1ccc(Cl)cc1Cl (centres undefined)
9% | COC(=O)c1cc2sc(Cl)cc2n1CC(=O)N1CCCc2ccccc21

# Further structures:
VDR inh | SMILES
-8% | COc1ccc(NC(=O)c2cc(-c3ccccn3)nc3ccccc23)cc1S(=O)(=O)N(C)C
-5% | Cc1ccc(-n2cc(-c3ccc([N+](=O)[O-])cc3)[nH]c2=S)c(C)c1
-5%&-11%&-11% | NC(N)=NCc1cccc(I)c1
-4% | Clc1ccccc1-c1nnc(-c2ccc3c(c2)OCO3)o1
4% | CN(CCc1ccccn1)C(=O)Nc1ccc(C(C)(C)C)cc1
-7% | COc1ccc(C(=O)c2sc3nc(-c4ccc(C)cc4)cc(C(F)(F)F)c3c2N)cc1
6% | O=c1[nH]c(=O)n(C2CCCCC2)c(O)c1C1=Nc2ccccc2SC(c2ccc(Cl)cc2)C1 (centres undefined)
8% | Cn1c(=O)c(C(=O)COc2ccc(C#N)cc2)c(N)n(Cc2ccccc2)c1=O
13% | Cc1nn(-c2ccc(F)cc2)c(-n2cccc2)c1C(=O)N1CCN(c2ccc(F)cc2)CC1
-2% | CCCn1ncc(CN2CCN(Cc3ccsc3)C(CCO)C2)c1C (centres undefined)
-7% | O=C(c1noc2c1CSc1ccccc1-2)N1CCN(c2ccc(Cl)cc2)CC1
-11% | C=CCSc1nc(=O)n2cccc(C)c2n1
16% | Cc1ccc(N2CCN(C(=O)N3CCCC3)CC2)cc1C
-9% | COc1cccc(NC(=O)c2sc3nc(C)c(C(=O)Nc4ccc(C)cc4C)c(-c4ccccc4Cl)c3c2N)c1
6% | Cc1ccc(C)n1-c1c(C(=O)NCCCN2CCN(c3ccc(F)cc3)CC2)sc2ncccc12
6% | CSc1[nH]c(=O)c(C(=O)O)cc1C#N
22% | COCCNC(=O)C(=O)NNC(=O)c1ccccc1OC
12% | CCCCn1c(SC(C)C(N)=O)nc2cc(C(=O)OC)ccc2c1=O (centres undefined)
-13% | O=C1C2C3C=CC(C3)C2C(=O)N1CCN1CCN(S(=O)(=O)c2ccc3ccccc3c2)CC1 (centres undefined)
-13% | COc1ccc(S(=O)(=O)N2CCCCCC2)cc1NC(=O)CC1OC(=O)c2ccccc21 (centres undefined)
7% | Cc1ccc(S(=O)(=O)/N=C(\c2ccccc2)N(C)S(=O)(=O)c2ccc(C)cc2)cc1
10% | O=C(Cn1c(=O)oc2cc(S(=O)(=O)N3CCCCC3)ccc21)NCc1ccc(Cl)cc1
-24% | COc1cc(NC(=O)c2ccc(Cl)cc2)c(OC)cc1NC(=O)CN1CCCCC1
-4% | CSc1ccccc1NC(=O)C(C)N1C(=O)c2ccccc2S1(=O)=O (centres undefined)
14% | CS(=O)(=O)N1CCN(c2ccccc2NC(=O)c2cc(Br)ccc2Cl)CC1
5% | CC1(C)OC(=O)C(=CNc2cccc(C(=O)O)c2)C(=O)O1
9% | CCc1cc2c(cc3c(=O)n(CC(=O)NC4CCC(C)CC4)ncn32)s1 (centres undefined)
-12% | CCOC(=O)N/N=C/c1ccc(OCCSc2ccc(Cl)cc2)c(OC)c1
41%[activator] | COc1cccc(NC=C2C(=O)OC(C)(C)OC2=O)c1
-9% | FC(F)(F)c1nc(Sc2ncccc2C(F)(F)F)n[nH]1

# Ordered by SMILES length (descending): 4 of the compounds above
VDR inh | SMILES
-13% | O=C1C2C3C=CC(C3)C2C(=O)N1CCN1CCN(S(=O)(=O)c2ccc3ccccc3c2)CC1 (centres undefined)
-4% | Clc1ccccc1-c1nnc(-c2ccc3c(c2)OCO3)o1
16% | Cc1ccc(N2CCN(C(=O)N3CCCC3)CC2)cc1C
-5%&-11%&-11% | NC(N)=NCc1cccc(I)c1

# The results go on.
VDR inh | SMILES
0%&-1%&-7% | c1ccc2c(c1)CCCC2C1=NCCN1 (centres undefined)
? | O=C(c1cc(COc2ccc(F)cc2Cl)on1)N1CCCCCCC1
-18% | Cc1ccc(CCNC(=O)CCCn2c(=O)c3ccccc3n(Cc3ccccc3C)c2=O)cc1
6% | Cc1cccc(NS(=O)(=O)c2ccc3[nH]c4c(c3c2)CCCCCC4)c1
3% | CCc1ccc2c(c1)c(N=NC1=NC(=O)CS1)c(O)n2C
12% | NC(=O)c1cccn(Cc2ccc(C(F)(F)F)cc2)c1=O
22% | C=CCn1c(SCC(=O)Nc2ccccc2OC)nnc1-c1ccccn1
-14% | O=C(CSc1ncn[nH]1)Nc1cccc2ccccc12
-1% | Cc1cccc(Cc2c(C)nc3nc(SCc4cccc(F)c4)nn3c2C)c1
-9% | O=C(NCCc1cccs1)c1ccc(Cl)cc1
-6% | O=C(C1CC(=O)N(c2ccc(Cl)cc2)C1)N1CCN(Cc2ccc3c(c2)OCO3)CC1 (centres undefined)
-13% | N#CCCn1c(=O)c(-c2cccs2)nc2cnc(N3CCNCC3)nc21
-16% | CCC(C)(C)NC(=O)C(c1cccc(OC)c1OC)N(CCOC)C(=O)CCC(=O)Nc1cc(C)on1 (centres undefined)
-3% | COc1ccc(C(=O)Nc2ccc3nc(SCC(=O)N(C)c4ccccc4)sc3c2)cc1
-8% | CC1(C)C=Cc2c(cc3occ(-c4ccc5c(c4)OCO5)c(=O)c3c2O)O1
-17% | S=c1[nH]nc(Cc2noc3ccccc23)n1-c1ccccc1
-4% | CC(C)CN1C(=O)c2ccc(NC(=O)c3ccccc3F)cc2C1=O
-6% | Cc1ccc(SCC(=O)OCn2nnc3ccccc3c2=O)cc1C
-15% | CCn1c(-c2cc(Br)ccc2O)n[nH]c1=S
8% | Cc1ccc(S(=O)(=O)NC(=O)N2CCCC2)cc1
-3% | CCOC(=O)/C(C#N)=N\Nc1cc(Cl)ccc1OC
-4% | C1=C(CCNCC2CC2)CCCC1
4% | NC(=O)c1cc([N+](=O)[O-])ccc1NCc1cccc2ccccc12
6% | COc1ccc(S(=O)(=O)NC(N)=NCCc2ccccc2OC)cc1
-11% | c1ccc(OCCCc2nc(-c3ccncc3)no2)cc1
-8% | Clc1ccc(OCc2nc3ccccc3n2Cc2ccccc2)c(Cl)c1
18% | CCc1nn(Cc2cc(C)ccc2C)c(=O)c2cc3cc(C)ccc3n12
-2% | N#Cc1ccc(OCC(=O)N/N=C(\CCC(=O)O)c2cccs2)cc1
6% | CN1CCN(c2ccc(Cl)cc2NC(=O)c2ccc(S(=O)(=O)N3CCCCCC3)cc2)CC1
? | O=C(O)/C=C\C(=O)Nc1ccc(N2CCN(c3ccc(Cl)c(Cl)c3)CC2)cc1
-10% | Cc1ccc(C)c(NC(=O)COC(=O)c2cccc3c2C(=O)c2ccccc2C3=O)c1

# Structures above containing a nitro group on carbon, in the order listed:
VDR inh | SMILES
9% | O=C(NCCc1nc2ccccc2[nH]1)c1ccc(Cl)c([N+](=O)[O-])c1
-5% | Cc1ccc(-n2cc(-c3ccc([N+](=O)[O-])cc3)[nH]c2=S)c(C)c1
4% | NC(=O)c1cc([N+](=O)[O-])ccc1NCc1cccc2ccccc12
